NPYLR7 agonist – agonists of mosquito NPYLR7 receptor, primary screen, cell-based, Aedes aegypti, calcium fluorescence, mosquito biting behavior; Aedes aegypti neuropeptide Y-like receptor 7 (NPYLR7); HEK293T NPYLR7/Galpha15, GCaMP6s calcium fluorescence; activation, % at 10 µM; 270,000 compounds, 0.15% hits; AID 1259423, 2018; in the data active = activation above about 40%;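 note: 0% = vehicle and 100% = reference agonist at the receptor; some compounds past the cut are filed as inactive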
NPYLR7 agonist max-min – second read-out of NPYLR7 agonist, no call of its own (marks repeat the call); activation, %; measured here: Max-Min RFU normalised activation; some inactives read as strong as hits;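 span of the calcium signal over five minutes; 0% = vehicle and 100% = native peptide agonist; compound fluorescence can raise it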
* marks the source's active call; other numbers are inactive results; & = joins results of further samples. An excerpt; count on the stated rates, not on these rows.

SMILES | NPYLR7 agonist | NPYLR7 agonist max-min
CCN(CC)S(=O)(=O)c1cc(NC(=O)C23CC4CC(CC(Br)(C4)C2)C3)ccc1C | -4 | -10
FC(F)(F)c1ccccc1-n1nc(C2CC2)nc1-c1csnn1 | 12 | 3
Fc1cccc(C2=NOC(CNCc3ccc(C(F)(F)F)cc3)C2)c1 (configuration not stated) | -2 | -5
CCOc1ccc(C(=O)OCC(=O)NC(C)(C)C)cc1 | 2 | 1
O=C(Nc1ccc2c(c1)C(=O)Nc1ccccc1O2)Oc1ccccc1 | 6 | 2
O=C(Cn1ccnc1)Nc1ccc(Cl)cc1C(F)(F)F | 1 | 0
CCOC(=O)C1CCCN(C(=O)c2ccc(CSc3nc(CC)cc(N(C)C)n3)cc2)C1 (configuration not stated) | 2 | 10
Cc1c(CCC(=O)NCC2Cc3ccccc3O2)c(=O)[nH]c2c1c(=O)[nH]n2C (configuration not stated) | 4 | 0
COc1ccc(Cl)cc1C(=O)Nn1cnc2c(cnn2-c2ccccc2)c1=O | 2 | 0
c1ccc(Cn2ncc3c2ncn2c(-c4ccccc4)nnc32)cc1 | 15 | 4
CCS(=O)(=O)N1CCC(C(=O)Nc2cccc(C#N)c2)(c2ccccc2)CC1 | 5 | 1
c1ccc2c(c1)oc1c(SCC3CCCCO3)ncnc12 (configuration not stated) | -3 | 2
O=C(CCCn1ncn2c(cc3occc32)c1=O)NCc1ccco1 | 2 | 1
COc1ccc(N2CCN(Cc3cc(=O)c(OC)cn3CC(=O)NCc3ccccc3)CC2)cc1 | 2 | -3
COc1c[nH]c(C(=O)N2CCCC(c3[nH]ncc3-c3ccccc3)C2)cc1=O (configuration not stated) | 8 | 7
COCC1(C(=O)NCCC2CCOC2)CCC1 (configuration not stated) | 11 | 4
O=C(Nc1ccc(Cl)cc1)Nc1ccc(-n2cnnn2)cc1 | 1 | 8
Cc1ccccc1C(=O)Oc1ccccc1/C=N\n1c(=O)c(C(C)(C)C)nn2cnnc12 | 0 | -3
CCc1cc(Oc2cccc(Cl)c2)nc(SCc2cccc([N+](=O)[O-])c2)n1 | -10 | -3
CCOc1ccc(-c2nc(CN3N=NC4C(=O)N(c5ccc(C(C)C)cc5)C(=O)C43)c(C)o2)cc1 (configuration not stated) | 3 | -4
O=C(C1CCCC1)N1CCC(n2c(=O)oc3ccc(Cl)cc32)CC1 | -8 | 3
Cn1c(N)c(C(=O)COC(=O)c2ccc(Br)o2)c(=O)n(C)c1=O | 2 | -1
CC1=C(C(=O)OCc2ccccc2)C(c2cn(-c3ccccc3)nc2-c2ccc(Cl)cc2)C(C(=O)OCc2ccccc2)=C(C)N1 | -13 | -21
O=S(=O)(NCc1ccc2c(c1)OCO2)c1ccccc1Cl | 0 | -5

Full records from above. Values in the order: NPYLR7 agonist, NPYLR7 agonist max-min
Record of CC1=C(C(=O)OCc2ccccc2)C(c2cn(-c3ccccc3)nc2-c2ccc(Cl)cc2)C(C(=O)OCc2ccccc2)=C(C)N1 → -13, -21
Record of O=C(C1CCCC1)N1CCC(n2c(=O)oc3ccc(Cl)cc32)CC1 → -8, 3

The results go on.
SMILES | NPYLR7 agonist | NPYLR7 agonist max-min
COc1cc2c(cc1OC)C(CNC(=S)NC(C)C)N(C(=O)Nc1cccc(C)c1)CC2 (configuration not stated) | 15 | 8
Cc1ccc(-c2ccc(=O)n(CC(=O)N3CCCCC3)n2)c(C)c1 | 9 | 4
COc1ccc(CN(CCN(C)C)c2ncccn2)cc1 | -9 | -11
O=c1ccc(=O)n(CN2CCSCC2)[nH]1 | -6 | -9
CCOc1ccc(NC(=O)CN(c2cccc([N+](=O)[O-])c2)S(=O)(=O)c2ccccc2)cc1 | 8 | 11
Cc1cc(N2CCNCC2)nc(-c2cccc(C(F)(F)F)c2)n1 | -3 | 7
O=C1CC[C@@H](CN(Cc2ccccn2)C(=O)c2cn(Cc3ccccc3Cl)nn2)N1 | 3 | -2
CS(=O)(=O)N1CCC(CNC(=O)CCS(=O)(=O)c2ccccc2)CC1 | -9 | -8
Oc1[nH]c2ccccc2c1N=Nc1ccccc1Cl | -2 | -4
CCN1CCCN(c2nc3ccccc3cc2C)CC1 | 1 | -2
Clc1cc2c(cc1CSc1nnc3c(n1)[nH]c1ccccc13)OCO2 | 3 | -2
Nc1nc(NCc2ccc(Cl)cc2)nc(NCc2ccco2)c1[N+](=O)[O-] | 10 | 7
CS(=O)(=O)c1nc(-c2cccs2)cc(C(F)(F)F)n1 | 4 | 5
COCCN1CCCC[C@]2(C[C@H](CO)[C@H](c3ccco3)N2C(=O)Cc2ccc(F)cc2)C1=O | 5 | 9
COc1cc(Cl)c(C)cc1-n1ccnc(NCCCc2ccccc2)c1=O | 2 | -4
COc1ccccc1C1(CC(=O)N(C)Cc2cccc3ncccc23)CC(=O)N(C2CCCC2)C1=O (configuration not stated) | 19 | 14
Cc1nc(NCC2CC(=O)N(C(C)C)C2)c2cnn(C)c2n1 (configuration not stated) | 22 | 18
CCCOc1ccc(Oc2ccc(S(=O)(=O)N3CCN(C)CC3)cn2)cc1 | 1 | -2
Oc1ccc(-c2nnc(-c3ccccc3)c(-c3ccccc3)n2)cc1 | 10 | 11
COc1ccc(-c2cn[nH]c2-c2ccc(OCCN3CC(C)OC(C)C3)cc2O)cc1 (configuration not stated) | 4 | 1
CC(C)Oc1ccc(C(O)=C2C(=O)C(=O)N(CCN3CCOCC3)C2c2cccc([N+](=O)[O-])c2)cc1 (configuration not stated) | -1 | -1
O=C(O)CN(CC(=O)O)C1CCS(=O)(=O)C1 (configuration not stated) | 3 | 1
COC(=O)c1cc2n(n1)CCCN(C(=O)Cc1[nH]nc3ccccc13)C2 | 12 | -1
Cc1nc2ccccc2c(=O)n1NC(=S)NC(=O)c1ccc(Br)cc1 | -1 | -2
O=C(NC1CC1)C(C1CCCC1)N1CCN(C(=O)C2CCC2)CC1 (configuration not stated) | -6 | -7
CC1(C(=O)NCCC#N)CCN1C(=O)C/C=C/c1ccccc1 (configuration not stated) | 4 | 12
CC(C)(C)N1CC(c2nc3ccccc3n2CCOc2ccc(Cl)cc2)CC1=O (configuration not stated) | -1 | -3
CCc1ccccc1Nc1nc(N)nc(Cn2ccccc2=O)n1 | 1 | -2
CCc1[nH]n(-c2ccc(Cl)c(Cl)c2)c(=O)c1C1=C(N2CCOCC2)C(=O)N(c2ccc(OC)cc2OC)C1=O | -7&-1 | -2&8
Cc1cccc(Oc2ccccc2NC(=O)c2ccc(=O)[nH]c2)c1 | 0 | -2
CN1CCN(C(=O)C2COc3ccccc3O2)CC1=O (configuration not stated) | 3 | -7
COCCOC(=O)C1=C(C)N(C)C(=S)NC1c1ccc(NC(=O)c2cc(C(F)(F)F)cc(C(F)(F)F)c2)cc1 (configuration not stated) | -2 | 11
C=CCn1c(C)cn2c3c(=O)n(CC(C)=O)c(=O)n(C)c3nc12 | 0 | -5
C=CCNC(=O)N1CCC2(CC1)N=CC(C)(c1ccccc1)S2 (configuration not stated) | 25 | 25
c1cc(-c2nccn2CC(c2ccncc2)N2CCOCC2)ccn1 (configuration not stated) | 1 | -1
Cc1sc(NC(=O)c2ccncc2)nc1-c1ccc(Cl)cc1 | 4 | -1
CN(Cc1ccc(-c2nc(-c3cccnc3)cc(=O)[nH]2)cc1)Cc1ccsc1 | -2 | 6
O=c1cc(-c2cccc(O)c2)oc2ccc(O)cc12 | -4 | -11
COc1ccc(C(=O)Nc2cccc(-c3nc4cc(C)cc(C)c4o3)c2)cc1Cl | 2 | 0
Cc1cc(C)nc(N=C(NC(=O)Cc2ccccc2)N2CCC(C(N)=O)CC2)n1 | 0 | 2
Cc1csc(SCc2cc(=O)c(OC(=O)c3ccccc3F)co2)n1 | -7 | -11
COc1ccc(-c2csc(=Nc3ccccc3OC)n2-c2ccccc2Oc2ccccc2)cc1 | -12 | -16
CCN1CCc2c(sc3nc(C)nc(N4CCN(C(=O)c5cccc(Br)c5)CC4)c23)C1 | -2 | -1
COc1ccc(-n2nnc(C(=O)N(C)c3ccccc3)c2N)cc1 | 4 | 6
Cc1ccc(-c2[nH]ncc2CNCCCN2CCCC2=O)cc1C | 1&0 | -2&-4
COc1cc(OC)cc(C(=O)N2CCN(c3nc(Cc4ccc(C)cc4)nc4c3cnn4-c3ccccc3)CC2)c1 | 10 | 13
Cc1ccccc1OCc1nc(CN(C(=O)c2ccc(Cl)cc2)C2CC2)cs1 | 28 | 18
N#CCCN(CCC#N)C(=O)CSc1nc2cc(Cl)ccc2s1 | 5 | 0
COc1ccc(/C=C2\C(=O)N(c3cccc(C(=O)O)c3)N=C2C)cc1OC | -1 | -7
COC(=O)c1sc2ncn3nc(CC45CC6CC(C4)CC(n4ncnn4)(C6)C5)nc3c2c1C | 1 | 39
Cc1ccc(S(=O)(=O)N2CCN(C(C)C(=O)NC3CCCCC3)CC2)c(C)c1 (configuration not stated) | 0 | -1
COc1ccc(C2=NOC(CNCc3cccc(C(F)(F)F)c3)C2)cc1 (configuration not stated) | -5 | -3
Cn1cccc1/C=C1\SC(=S)N(N2CCOCC2)C1=O | 2 | 7
CC(C)c1cccc(-c2nc3c(NCc4ccncc4)nccc3[nH]2)c1 | -7 | -11
Cc1nnnn1CCC(=O)N1CCc2[nH]nc(-c3cccc4ccccc34)c2C1 | 18 | 15
O=C(Nc1ccccc1F)c1ccc(N2CCOCC2)nc1 | 2 | 1
O=C(NCC1CCCN(C(=O)c2cncs2)C1)c1cccc2ccccc12 (configuration not stated) | -1 | -4
Cc1nn(-c2nc(-c3ccco3)cc(C(F)(F)F)n2)c(C)c1Br | 9 | 4
COc1cccc(-c2nnc(SCc3ccc(C(=O)Nc4ccc(F)cc4)cc3)n2-c2ccccc2OC)c1 | 0 | 1
CC(=O)N1CCCN(C(=O)c2ccc(OC3CCN(CCc4ccccc4)CC3)cc2)CC1 | 0 | -2

Molecules from the list above containing a CF3 group, in the order listed:
SMILES | NPYLR7 agonist | NPYLR7 agonist max-min
FC(F)(F)c1ccccc1-n1nc(C2CC2)nc1-c1csnn1 | 12 | 3
Fc1cccc(C2=NOC(CNCc3ccc(C(F)(F)F)cc3)C2)c1 (configuration not stated) | -2 | -5
O=C(Cn1ccnc1)Nc1ccc(Cl)cc1C(F)(F)F | 1 | 0
Cc1cc(N2CCNCC2)nc(-c2cccc(C(F)(F)F)c2)n1 | -3 | 7
CS(=O)(=O)c1nc(-c2cccs2)cc(C(F)(F)F)n1 | 4 | 5
COCCOC(=O)C1=C(C)N(C)C(=S)NC1c1ccc(NC(=O)c2cc(C(F)(F)F)cc(C(F)(F)F)c2)cc1 (configuration not stated) | -2 | 11
COc1ccc(C2=NOC(CNCc3cccc(C(F)(F)F)c3)C2)cc1 (configuration not stated) | -5 | -3
Cc1nn(-c2nc(-c3ccco3)cc(C(F)(F)F)n2)c(C)c1Br | 9 | 4

Later entries
SMILES | NPYLR7 agonist | NPYLR7 agonist max-min
CC(C)CNC(=O)CSc1ncnc2c1cnn2-c1ccc(F)cc1 | 1 | 0
CCc1nc2ccc(C(=O)N3CCN(c4ccccc4)CC3)cn2c1N(C)Cc1ccc(OC)cc1 | -19 | -21
COC(=O)CCCC(=O)NCc1ccc(-c2ncc(-c3ccc(OC)cc3)[nH]2)cc1 | -1 | 9
CCCS(=O)(=O)N1CCCC1C(=O)N1CCN(C(=O)Nc2ccccc2)CC1 (configuration not stated) | 6 | 4
CSc1ncccc1C(=O)N1CCCC(C(=O)c2ccc3ccccc3c2)C1 (configuration not stated) | 4 | 1
CCn1ccnc1CN(C)c1nc2nonc2nc1NCc1cccs1 | 19 | 9
Cc1nn(C)c(C)c1C(C)C(=O)Nc1cnccc1N1CCCCC1 (configuration not stated) | 7 | 4
Cc1cccc2nc(-c3ccc4c(c3)OCO4)c(NC(C)(C)CC(C)(C)C)n12 | -5 | -3
C=CCN1C(=O)C(=Cc2c(NCCCOC)nc3ccccn3c2=O)SC1=S | 13 | 10
COc1cccc(Cc2nsc(N3CCC(CNC(=O)COc4ccc(Cl)cc4)CC3)n2)c1 | 19 | 16
CC(C)c1nccn1CC(c1ccc(F)cc1)N1CCCC1 (configuration not stated) | 0 | -4
COc1ccc(CC(=O)Nc2nnc(SCc3cc(F)ccc3F)s2)cc1 | 18 | 15
CCCC(C)(C)C(=O)N1CCC1(C)C(=O)Nc1ccc(OC)c(OC)c1 (configuration not stated) | 6 | 2
CC(=O)Nc1ccc(F)c(C(=O)Nc2ccccc2C#N)c1 | -1 | -2
COCC(=O)N(CCN(C)C)Cc1c(-c2ccccc2)noc1N1CCCCC1 | 12 | 14
CCCN(CC1CCCO1)C(=O)c1ccc(-n2cc(NC(=O)c3cccnc3)cn2)cc1 (configuration not stated) | 2 | -5
NC(=O)C(c1ccccc1)N1CCN(c2ccccc2Cl)CC1 (configuration not stated) | -2 | -2
Cc1ccc(C2(O)CCN(C(=O)c3ccccc3NC(=O)C(C)C)CC2)nc1 | 0 | 0
FC(F)(F)c1cc(-c2ccc(Cl)cc2)nc(-n2cccn2)n1 | 9 | 1
CC1CC(C)CN(C(c2ccco2)C2Sc3ncnn3C2=O)C1 (configuration not stated) | 0 | -1
CCCCN(C)C(=O)c1sc(=O)n(CCOc2ccc(F)cc2)c1C | -9 | 1
Cc1nc2c(c(N3CCN(Cc4nccn4C)CC3)n1)CCNCC2 | -4 | -8
COc1ccc(C(=O)N2CCN(c3ncnc4cccc(F)c34)CC2)cc1 | -5 | -5
c1ccc2sc(C3CCCN(Cc4cc5n(n4)CCCNC5)C3)nc2c1 (configuration not stated) | 0 | 29

Single entries from the entries so far.
NPYLR7 agonist max-min with `Cc1nc2c(c(N3CCN(Cc4nccn4C)CC3)n1)CCNCC2` stands at -8
NPYLR7 agonist with `FC(F)(F)c1cc(-c2ccc(Cl)cc2)nc(-n2cccn2)n1` stands at 9

(list continues)
SMILES | NPYLR7 agonist | NPYLR7 agonist max-min
COc1ccc2c(=O)c3c(=O)n(-c4ccccc4)c(C)nc3oc2c1 | 6 | 4
CSCCC(=O)NCc1cccnc1N1CCOCC1 | 0 | -3
CCCCN(C(=O)CC(C)C)c1c(N)n(CCC)c(=O)[nH]c1=O | 0 | 1
CCSc1c(C)cnc2c1c(=O)n(C)c(=O)n2C | -3 | 4
CCN(C(=O)c1sc(C)nc1C)C(C)COC (configuration not stated) | 4 | 3
